Bioassay records deposited in PubChem by several laboratories.
UUG fidelity = yeast start codon fidelity modulation; S. cerevisiae UUG-firefly luciferase reporter, luminescence/redox ratio; activity score, % at 18.7 µM; 350,000 compounds, 0.13% hits; AID 602363;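 active = replicate mean at a twofold rise or more, about +100% in these data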;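 also: firefly luciferase made from a UUG start codon reports start codon fidelity; reporter light over untreated wells divided by growth signal over untreated wells; some hits fall short of that in this replicate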
PABP polyA inh = PABP-poly(A) binding inhibition | P11940 | PABP-poly(A) RNA binding, fluorescence polarization | inhibition, % at 35 µM | 290,000 compounds, 1% hits;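 active = 50% or more with normal probe brightness, or confirmed in later tests; inconclusive = above 50% with abnormal brightness, or retests that disagree; inactive = below 50% or failed in later tests; about a fifth of its hits are not listed in these tables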;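 also: calls also rest on retests at 20 µM and on dose response follow-up; controls were probe without protein and protein plus probe with vehicle; some compounds called inactive have numbers as strong as hits; many hits fall short of the cut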
Target sequence (P11940 whole entry, looked up): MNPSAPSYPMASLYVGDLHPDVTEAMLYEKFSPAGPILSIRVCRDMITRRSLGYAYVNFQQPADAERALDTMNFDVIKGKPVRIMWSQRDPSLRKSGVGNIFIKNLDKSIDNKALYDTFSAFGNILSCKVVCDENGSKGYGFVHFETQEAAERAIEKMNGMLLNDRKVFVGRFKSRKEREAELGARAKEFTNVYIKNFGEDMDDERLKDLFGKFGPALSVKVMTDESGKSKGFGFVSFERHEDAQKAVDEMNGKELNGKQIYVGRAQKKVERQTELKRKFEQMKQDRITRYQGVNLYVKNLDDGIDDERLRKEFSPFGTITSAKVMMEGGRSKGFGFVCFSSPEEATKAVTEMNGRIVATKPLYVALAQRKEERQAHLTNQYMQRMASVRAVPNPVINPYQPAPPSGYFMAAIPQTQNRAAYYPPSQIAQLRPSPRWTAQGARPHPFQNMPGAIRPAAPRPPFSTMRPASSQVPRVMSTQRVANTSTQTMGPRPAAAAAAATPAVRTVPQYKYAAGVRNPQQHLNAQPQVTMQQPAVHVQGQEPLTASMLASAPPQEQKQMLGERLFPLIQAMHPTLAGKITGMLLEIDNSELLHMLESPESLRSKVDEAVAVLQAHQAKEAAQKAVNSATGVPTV
CSC inhib = blocks cancer stem cells. inhibition, % at 7.5 µM. AID 2717. cancer stem cell-like cells viability, luminescence. 300,000 compounds, 1.1% hits;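 active = mean at 75% or more and at least half the replicates too; inconclusive = mean and replicates disagree; tested in HMLE shEcad cells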;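 also: 0% = median of negative and 100% = median of positive control wells; the first replicate is given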
HIV Env fusion = HIV envelope-mediated fusion inhibition; 360,000 compounds, 1.1% hits; inhibition, % at 12.3 µM; AID 651610; HeLa-JRFL Env/CEM21 cell fusion, luciferase;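 active = mean replicate inhibition score of at least 50 and every replicate individually at or above 50; inconclusive = only one of the two criteria met; inactive = mean below 50 and not all replicates reaching 50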;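 also: 0% = plate neutral controls and 100% = maraviroc near 300 nM; one replicate is shown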
MT1-MMP act inh = blocks activation of human MT1-MMP; 360,000 compounds, 0.061% hits; P50281; HT1080 RFP-PRO-GFP cells, GFP/RFP ratio fluorescence, overnight; percent of plate control window, DMSO zero; GFP/RFP ratio change, % at 20 µM;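 active = GFP/RFP ratio change of at least 30% with cell ATP level not reduced by more than half and red fluorescence within 50% of control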; also: strong numbers were not always called active
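Assay system: HT1080 RFP-PRO-GFP cells. Benchmarks: DMSO vehicle wells and RFP-L50D-GFP reporter cell wells. Times: overnight cell settling, then overnight compound exposure, 37 °C, 5% CO2. Compound: 20 µM single dose, 1% DMSO. Read-out basis: GFP/RFP fluorescence ratio.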
Rce1 inhib = blocks yeast Ras-converting enzyme | Q03530 | yeast membranes, quenched prenylated peptide cleavage fluorescence | calls only | 290,000 compounds, 0.27% hits;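 active = fall in fluorescence gain of 50% or more versus controls, with final raw signal at or below 3038400; inconclusive = same 50% fall but final raw signal above 3038400; inactive = fall in fluorescence gain under 50%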;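 also: plate controls were neutral control wells for no effect and wells lacking membranes for full effect; tested at 10 µM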
eIF4H FP inh = inhibitors of RNA binding by human eIF4H; Q15056; eIF4H fluorescence polarization binding assay; inhibition, % at 35 µM; 290,000 compounds, 0.94% hits;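 active = 50% or more with normal probe brightness, or confirmed in later tests; inconclusive = above 50% with abnormal brightness, or retests that disagree; inactive = below 50% or failed in later tests; about a fifth of its hits are not listed in these tables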;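 also: calls also rest on retests at 20 µM and on dose response follow-up; 0% = protein and probe with vehicle and 100% = probe without protein; strong numbers were not always called active; many hits fall short of the cut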
MT1-MMP act inh RFP = further read-out of MT1-MMP act inh, marked with its call; RFP signal change, %; measured here: RFP expression control read;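 0 = vehicle wells; hits needed this value within 50% of zero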
An asterisk follows results filed as active; i = inactive; ? = inconclusive; / = no result given; & = joins results of further samples. These rows are one share of the data. The share of hits here may be higher or lower than overall.

Below each compound – eIF4H FP inh	UUG fidelity	HIV Env fusion	Rce1 inhib	CSC inhib	MT1-MMP act inh	MT1-MMP act inh RFP	PABP polyA inh
- COc1ccccc1NC(=O)CCS(=O)(=O)c1cc2c(cc1Cl)NC(=O)CO2
 : -12	-20	28	i	-3	1	10	8
- CCOCCn1c(CN(Cc2ccccc2)Cc2ccccc2)nc2c1c(=O)[nH]c(=O)n2C
 : 38	19	/	i	-2	-4	-5	-10
- COc1ccccc1NC(=O)CSc1nnc(-c2ccccn2)n1Cc1ccco1
 : 0	-12	25	i	-1	-5	1	1
- COc1ccc(-c2csc(NC(=O)CS(=O)(=O)c3ccc(F)cc3)n2)cc1OC
 : /	/	-1	i	-4	8	2	/
- O=C(CSc1nnc(-c2cccnc2)o1)Oc1ccccc1
 : -2	-4	9	i	-9	-4	0	3
- CCCCCCN(C(=O)CCl)c1ccccc1
 : 7	-5	16	i	12	-9	-14	7
- COCc1cc(C)nc(SCC(=O)N2CCC(C)CC2)c1C#N
 : -1	-8	2	i	-10	-3	2	-1
- O=S(=O)(NC1CCN(S(=O)(=O)c2ccc3c(c2)OCCO3)C1)c1c(F)cccc1F (centres undefined)
 : /	-19	23	/	-5	1	0	/
- COc1ccc(Cl)cc1NC(=O)C/C(C)=N/NC(=O)CC#N
 : 0	-3	30	i	-1	1	0	-9
- O=C(C(=O)N1CCN(c2ccccc2F)CC1)c1cn(CC(=O)N2CCOCC2)c2ccccc12
 : -5	-5	3	i	-7	2	7	1

An excerpt from above in order of heavy-atom count, smallest number first.
Below each compound – eIF4H FP inh	UUG fidelity	HIV Env fusion	Rce1 inhib	CSC inhib	MT1-MMP act inh	MT1-MMP act inh RFP	PABP polyA inh
- COc1ccc(Cl)cc1NC(=O)C/C(C)=N/NC(=O)CC#N
 : 0	-3	30	i	-1	1	0	-9
- COCc1cc(C)nc(SCC(=O)N2CCC(C)CC2)c1C#N
 : -1	-8	2	i	-10	-3	2	-1
- CCOCCn1c(CN(Cc2ccccc2)Cc2ccccc2)nc2c1c(=O)[nH]c(=O)n2C
 : 38	19	/	i	-2	-4	-5	-10

Other records follow:
Below each compound – eIF4H FP inh	UUG fidelity	HIV Env fusion	Rce1 inhib	CSC inhib	MT1-MMP act inh	MT1-MMP act inh RFP	PABP polyA inh
- O=C(NCCS(=O)(=O)N1CCC2(CC1)OCCO2)c1ccccc1
 : /	-6	-20	i	1	0	2	/
- Cc1ccc(S(=O)(=O)N(CC(=O)N2CCCCC2)c2cccc(C)c2)cc1
 : 0	7	/	i	-12	1	-1	0
- O=C(CC1C(=O)N(c2ccccc2)C(=S)N1c1ccccc1)c1ccc(Br)cc1 (centres undefined)
 : -18	/	1	i	16	3	0	-14
- C[C@@H]1CN([C@@H](C)CO)S(=O)(=O)c2ccc(/C=C/c3ccccc3)cc2O[C@@H]1CN(C)Cc1ccc(C(=O)O)cc1
 : /	11&1&-3	-15	/	/	1	5	/
- COc1ccc(NC(=O)C[C@H]2C(=O)N(c3ccccc3)C[C@@H]2CSC)cc1
 : /	-1	1	/	/	3	4	/
- O=c1c2ccccc2nnn1-c1ccccc1[N+](=O)[O-]
 : /	-17	1	/	/	2	-2	/
- CCSc1ccc([C@@H]2[C@H]3C(=O)N(C)C(=O)[C@H]3[C@]3(C(=O)OC)CCCCN23)cc1OC
 : /	-25	16	/	-1	-2	-1	/
- CCc1ccc(NC(=O)CSc2nnc(-c3n[nH]c4ccccc34)n2-c2ccccc2)cc1
 : -5	/	7	i	6	1	-2	3
- C#CCn1c(O)c(N=NC(=O)CNC(=O)/C=C/c2ccccc2)c2ccccc21
 : -10	-16	-6	i	-17	2	1	-3
- CC(C)CCNC(=O)C1(C)CCN1Cc1ccc2ccccc2c1 (centres undefined)
 : /	4	11	/	/	-2	-9	/
- CCOC(=O)CNC(=O)Nc1cc(C(C)(C)C)nn1-c1ccccc1
 : 5	-19	/	i	10	-2	5	3
- CN(C)C(=S)c1ccc2ccccc2n1
 : -5	-22	13	i	-9	-3	7	10
- CCc1ccccc1NC(=O)Cn1nc(C(F)(F)F)c2c1CCC2
 : 0	2	/	/	3	-15	-7	33
- C#CC(=O)N(c1cc(OC)ccc1OC)C(C(=O)NC1CCCC1)c1cccs1 (centres undefined)
 : -2	-4	/	i	21	-23	-32	7
- CCOc1cc(NC(=S)NCCOC)c(OCC)cc1NC(=O)c1ccco1
 : 12	2	-2	i	-7	0	1	-2
- Cn1nnnc1SCC(=O)Nc1ccc(Br)cc1Cl
 : 1	-11	/	i	-11	4	1	6
- O=c1c2ccccc2oc2cc(C#CC3(O)CCCCC3)ccc12
 : /	-79	-161	i	19	-1	-5	/
- O=C(Nc1ccnn1C1CCN(Cc2ccccc2)CC1)c1ccccc1Cl
 : -10	0	i	i	-2	3	5	-2
- Cc1cccc(C)c1NC(=O)C1=C(O)c2ccccc2N(C)S1(=O)=O
 : ?	-7	-3	i	-2	-3	1	-5
- COc1ccc(CCNC(=O)CSc2ncn[nH]2)cc1
 : -6	/	/	i	-6	0	2	-10
- O=C(CSc1ccc(-c2ccco2)nn1)Nc1ccc(F)cc1F
 : 23	-15	-1	i	-1	3	-3	8
- COC(=O)[C@]1(C)N[C@H](CN(C)C(=O)Nc2ccc(C)cc2)[C@@H]2C(=O)N(C)C(=O)[C@@H]21
 : /	-12	2	/	-14	2	3	/
- CCc1ccc(NC(=O)NCc2cccnc2)cc1
 : 4	-3	17	i	-13	0	2	12
- COc1cccc(/C=N/NC(=O)C(C)Sc2ccccc2)c1 (centres undefined)
 : -6	/	1	i	9	1	0	2
- O=c1c2cccnc2n(-c2ccccc2)n1Cc1ccc(Cl)cc1
 : -9	/	30	i	18	-2	-3	-17
- O=C(COC(=O)c1c[nH]c(=O)[nH]c1=O)Nc1cccc([N+](=O)[O-])c1
 : /	-8	-4	/	-12	0	4	/
- Cc1ccc2cc(CN(Cc3ccc4c(c3)OCO4)Cc3nnnn3Cc3ccco3)c(=O)[nH]c2c1
 : 0	2	/	i	4	-6	-2	-3
- Cc1ccc(Cl)cc1-n1c(SCC(=O)NCCC2=CCCCC2)nc2n[nH]c(C)c2c1=N
 : -5	/	14	i	30	1	-10	-1
- Cc1cc(C)c(-c2nc3ccccc3s2)[nH]1
 : -16	-3	-52	i	-11	4	23	13
- O=C(COC(=O)c1cc2c(s1)CCCC2)NCc1ccccc1Cl
 : -7	/	-72	i	-6	3	7	-18

3 consecutive records from above:
Below each compound – eIF4H FP inh	UUG fidelity	HIV Env fusion	Rce1 inhib	CSC inhib	MT1-MMP act inh	MT1-MMP act inh RFP	PABP polyA inh
- O=c1c2cccnc2n(-c2ccccc2)n1Cc1ccc(Cl)cc1
 : -9	/	30	i	18	-2	-3	-17
- O=C(COC(=O)c1c[nH]c(=O)[nH]c1=O)Nc1cccc([N+](=O)[O-])c1
 : /	-8	-4	/	-12	0	4	/
- Cc1ccc2cc(CN(Cc3ccc4c(c3)OCO4)Cc3nnnn3Cc3ccco3)c(=O)[nH]c2c1
 : 0	2	/	i	4	-6	-2	-3

Other structures.
Below each compound – eIF4H FP inh	UUG fidelity	HIV Env fusion	Rce1 inhib	CSC inhib	MT1-MMP act inh	MT1-MMP act inh RFP	PABP polyA inh
- COc1cc(/C=C(\NC(C)=O)C(=O)N2CCCCC2)ccc1OC(C)=O
 : -12	-10	-8	i	-7	0	1	-3
- Cc1sc(NC(=O)C2=COCCO2)c(C#N)c1C
 : /	-10	-36	i	10	-3	-6	/
- CC(NC(=O)COc1ccc(/C=N/NC(=O)C(=O)Nc2ccccc2Br)cc1)c1ccccc1 (centres undefined)
 : -8	-13	/	i	-7	3	3	-9
- O=C(OCC(=O)N1N=C(c2ccc(Cl)cc2)CC1c1ccco1)c1cncc(Br)c1 (centres undefined)
 : /	-12	-15	/	-6	-3	2	/
- Cc1ccc(NC(=O)CSc2nc(=O)cc(N)n2CCc2ccccc2)cc1
 : 0	5	33	i	-38	1	1	0
- COc1cc(C)c(Cl)cc1S(=O)(=O)n1cnc(C)c1
 : -10	-14	/	i	20	-1	3	-11
- Cc1cc(NC(=O)CCCn2cnc([N+](=O)[O-])n2)no1
 : -11	1	-7	i	-2	0	3	-4
- COc1ccc(NC(=O)Nc2ccc(Cc3ccncc3)cc2)c(OC)c1
 : 3	-7	-5	i	16	-2	-4	-8
- CCOC(=O)CNC(=O)CSc1nnnn1-c1ccc(C)c(C)c1
 : 0	-16	/	i	7	2	-2	4
- Cc1ccc(C(=O)NCC(=O)OCCOc2ccccc2Cl)cc1
 : /	/	-29	i	5	-3	1	/
- Oc1ccc(N2CCN(Cc3cc4c(cc3Br)OCCO4)CC2)cc1
 : -5	-3	0	i	48	-3	-1	2
- Cc1cc(Br)ccc1NC(=O)CN(C)C(=O)C1=COCCO1
 : /	-9	/	/	-11	-4	-1	/
- CCOC(=O)Nc1c(Cl)n(C)c(=O)n(C)c1=O
 : 2	/	-24	i	-2	-3	3	0
- CCOc1ccc(Br)cc1S(=O)(=O)NCCN(C)C
 : -6	-4	/	i	7	-1	1	0
- COc1ccccc1CN1CCNC(=O)C1CC(=O)NCc1csc(C)n1 (centres undefined)
 : 8	/	-13	i	-17	4	5	0
- CCOc1ccc(Oc2c(/C=N/NC(=O)COc3ccccc3OC)c(C)nn2-c2ccccc2)cc1
 : -10	/	-6	i	17	-20	-18	12
- O=C(COc1ccc(Br)cc1CO)Nc1ccc(S(=O)(=O)N2CCCC2)cc1
 : /	-19	34	/	/	1	-9	/
- CC1CCN(C(=O)C2CCN(c3ncnc4c3nc3n4CCCCC3)CC2)CC1
 : -12	-8	-1	i	1	4	-6	2
- O=C1c2ccccc2C(=O)N1CCC(c1ccc(F)cc1)c1ccco1 (centres undefined)
 : -4	-8	/	i	-3	-4	0	-2
- COCCCN(C(=O)Cc1ccc(Cl)c(Cl)c1)c1c(N)n(Cc2ccccc2)c(=O)[nH]c1=O
 : 3	-18	4	i	-3	-2	-4	2
- CC1CC1C(=O)OCC(=O)NCc1ccccc1Cl (centres undefined)
 : -18	-4	-6	i	-1	6	4	-6
- O=C(Cc1ccccc1)N/N=C/c1ccc2cccc(O)c2n1
 : 8	/	-18	i	20	2	-2	4
- O=c1[nH]c2ccc(S(=O)(=O)Nc3ccc(Cl)cc3)cc2[nH]1
 : 22	-6	6	i	-9	-1	-1	3
- COc1cccc(/C=C/C(=O)OCC(=O)NCC2CCCO2)c1 (centres undefined)
 : 5	-11	-2	i	-12	5	4	4
